Screens as filed in PubChem BioAssay.
nsP2pro primary = Primary qHTS for inhibitors of NSP2Pro chikungunya virus (CHIKV); Polyprotein P1234 (Chikungunya virus (strain S27-African prototype)), Q8JUX6; FRET peptide cleavage, nsP2pro, fluorescence 1 h; Potency, µM (highest dose often 24.9 µM), for inactives: at the top dose activity change, negative = inhibition, actives largely listed as inhibitors; 31,000 compounds, 1.1% hits; AID 1964107, 2024; active means well fitted inhibition curve with a large enough effect; inconclusive means small, poorly fitted or top-dose-only effect; inactive means no such curve, though single readings can be large or run the other way; further: nearly all actives have a fitted effect of over 60% in size; a reference inhibitor and vehicle were the controls
Numbers without * were called inactive; i = inactive; ? = inconclusive; & = joins results of further samples; [ ] = another dose, or the depositor's remark. On the % scale 0 is the no-effect control and ±100 the full control effect; potency means the concentration at half of the fitted maximal effect.

canonical_smiles | nsP2pro primary
C=CC(C)(O)CC/C=C(\C)C(=O)O[C@H]1[C@H](O)[C@@H](CO)O[C@@H](OC(=O)[C@]23CCC(C)(C)CC2C2=CCC4[C@@]5(C)CC[C@H](O[C@@H]6O[C@H](CO[C@@H]7OC[C@H](O)[C@H](O)[C@H]7O[C@@H]7OC[C@@H](O)[C@H](O)[C@H]7O)[C@@H](O)[C@H](O)[C@H]6O)C(C)(C)C5CC[C@@]4(C)[C@]2(C)CC3)[C@@H]1OC1OC(C)C(O[C@@H]2OC[C@@H](O)[C@H](O[C@@H]3OC[C@@H](O)[C@H](O)[C@H]3O)[C@H]2O)C(O)C1O (stereo partly drawn) | -1%[5.1 µM]
C=C1CCC2C(C)(C)CC(=O)CC2(C)C1CCC(C)CCOC(C)=O (stereo not drawn) | -11%
CCOC(=O)c1cccc(Nc2cc(C)nc(C)n2)c1 | -15%
O=S(=O)(c1ccc2c(c1)OCCO2)N1CCN(S(=O)(=O)c2ccc(Br)cc2F)CC1 | -8%
COC(=O)CNC(=O)c1cc(-c2cccnc2)c2nncn2n1 | -1%
Cc1nnc(CN(C)c2ncnc3ccc(-c4ccc5c(c4)OCO5)cc23)o1 | i
COCCn1ncc(N2CCCC(CC(=O)O)C2)cc1=O (stereo not drawn) | 2%
COC(=O)Cn1nc(-c2cccc(OC)c2)c2ccccc21 | 5%
CC(C)=C1CC[C@]23CO[C@H](C2)[C@@](O)(C(=O)O)CCC13 (stereo partly drawn) | -9%
COc1cc(OC)c(N(C)C(=O)Cn2ncc3c(=O)oc4ccccc4c32)cc1Cl | -19%
CCCN(CCC)C(=O)C1CCN(c2ncnc3c2nc2n3CCCCC2)CC1 | -16%
O=C(Nc1nnc(-c2ccco2)o1)c1ccncc1 | -4%
OCc1ccc(-c2ccc(-c3ccc(CO)s3)o2)s1 | 2.2µM*
N=c1c2c(ncn1CCN1CCOCC1)Oc1ccc3ccccc3c1C2c1ccccc1 (stereo not drawn) | i
COc1cc(Cl)ccc1C(=O)N1CC[C@@](C)(O)[C@@H](O)C1 | -1%

The closing 2 records of the section before are carried over, then new ones follow.
canonical_smiles | nsP2pro primary
N=c1c2c(ncn1CCN1CCOCC1)Oc1ccc3ccccc3c1C2c1ccccc1 (stereo not drawn) | i
COc1cc(Cl)ccc1C(=O)N1CC[C@@](C)(O)[C@@H](O)C1 | -1%
Cc1c(NC(=O)c2ccccc2F)cccc1-c1nc2cccnc2s1 | -13%
COc1cc(C2Oc3c(OC)cc(CCCO[C@@H]4O[C@H](CO)[C@@H](O)[C@H](O)[C@H]4O)cc3C2CO)ccc1O (stereo partly drawn) | 90%[activator][10 µM]
CCOc1ccccc1CNC(=O)C1CCCN(c2ncnc3onc(-c4ccc(F)cc4)c23)C1 (stereo not drawn) | -14%
O=c1c2nc(NCCOc3ccccc3)ccc2ncn1Cc1ccccc1 | i
C[C@]12CC[C@@H](O)C[C@H]1CC[C@@H]1[C@@H]2CC[C@]2(C)C(=O)CC[C@@H]12 | -13%
Cn1cc(CCn2cnc(-c3cnn(C)c3)c2-c2ccc(C#N)cc2)cn1 | 6%
Cn1cc(C(=O)[C@@H]2CCc3nc[nH]c3C2)c2ccccc21 | 24%
CC(C)(C)NC[C@H](O)COc1nsnc1N1CCOCC1 | -4%
O=C1Nc2ccccc2CN(CC2CCCCC2)C12CCNC2 (stereo not drawn) | 7%
O=C(NNC(=O)c1nc2ccccc2[nH]1)OCc1ccccc1 | i
Cc1ccc(-c2cc(N)n(-c3ccc(C)cc3)n2)cc1 | -10%
CCOC(=O)c1cccc(NS(=O)(=O)c2cc(Br)cc3c2N(C(=O)C2CC2)CC3)c1 | 7%
O=S(=O)(c1ccc2c(c1)OCCO2)N1CCCN(S(=O)(=O)c2c(F)cccc2F)CC1 | -1%
CCOc1cc(-c2ccc(OC(=O)c3ccccc3F)cc2)cc(=O)c2c(C)oc(C)c12 | -20%
CN(C)CC1(O)CCN(C(=O)Cn2cc(C(=O)C3CC3)c3ccccc32)C1 (stereo not drawn) | 5%

Quoted from the listing.
Under nsP2pro primary, COc1cc(C2Oc3c(OC)cc(CCCO[C@@H]4O[C@H](CO)[C@@H](O)[C@H](O)[C@H]4O)cc3C2CO)ccc1O (stereo partly drawn) is listed with 90%[activator][10 µM]
Under nsP2pro primary, CC(C)(C)NC[C@H](O)COc1nsnc1N1CCOCC1 is listed with -4%
Under nsP2pro primary, O=S(=O)(c1ccc2c(c1)OCCO2)N1CCCN(S(=O)(=O)c2c(F)cccc2F)CC1 is listed with -1%

(continued)
canonical_smiles | nsP2pro primary
CCC1CCC2(C1)N=C(Nc1nc3ccccc3o1)NC1=C2C(=O)CCC1 (stereo not drawn) | -2%&-2%&1%
Cc1ccc(CNC(=O)CN2C(=O)C(c3ccccc3)=NC23CCCCC3)cc1 | i
CCn1ccc(C(=O)N2CC[C@H](c3nc(C)no3)[C@H](NC(=O)C3CC3)C2)n1 | -4%
O=C(NC1CCCCC1)/C(=C/c1ccc(Cl)cc1)NC(=O)c1ccccc1 | -16%
Cc1cc(-c2cnc(N)c3c(-c4ccc5scnc5c4)csc23)n(C)n1 | 23%
COc1ccc(C(CNC(=O)COc2cc(C)cc(C)c2)N2CCOCC2)cc1 (stereo not drawn) | -18%
C=C(C(=O)O)[C@@H]1CC=C2CCC[C@H](C)[C@@]2(C)C1 | -18%
CC(=O)c1ccc(N2CCN(S(=O)(=O)c3ccc4c(c3)CC(C)N4C(C)=O)CC2)cc1 (stereo not drawn) | i
COc1ccc(C(=O)Nc2ccccc2CCC2CCCCN2C)cc1 (stereo not drawn) | -2%
CC(C)Oc1cccc(-c2nnc(CCC(=O)NCCc3cccs3)c(=O)[nH]2)c1 | -5%
COc1ccc(NC(=O)c2noc3c2CSc2ccccc2-3)cc1Cl | -26%
CN(C)Cc1c(C(=O)NCCOc2ccc(C(=O)NO)cc2)oc2ccccc12 | -14%&-16%&14%
COc1ccccc1N1CCN(c2ncnc3c2nnn3C)CC1 | -22%
CCS(=O)(=O)c1ncc(Cl)c(C(=O)NCc2ccccc2)n1 | ?
COc1ccc(C(=O)NC[C@H]2C[C@@H]3CCN2C[C@@H]3c2cc(-c3cccs3)nn2C)cc1 | 1%

Later entries:
canonical_smiles | nsP2pro primary
CCOC(=O)C1CCCN(C(=O)c2ccc3c(c2)sc2nc(-c4cccc(OC)c4)cn23)C1 (stereo not drawn) | 3%
Cc1occc1C(=O)N1CC[C@@H]2CN(S(C)(=O)=O)[C@@H]2C1 | -13%
O=C(Cn1c(=O)oc2ccccc21)N1CC2CC(C1)[C@H]1CCCC(=O)N1C2 (stereo partly drawn) | -2%
COc1ccc(NC(=O)C(=O)c2cc(C)n(-c3ccc(C)cc3)c2C)cc1Cl | -18%
O=C(NCCc1ccc(Cl)cc1)c1ccc2c(c1)N(Cc1cccc(Cl)c1)C(=O)c1ccccc1S2(=O)=O | -22%
Cc1cc2c(s1)c1cnn(Cc3c(F)cccc3Cl)c(=O)c1n2C | -5%
COc1cc(/C=C/c2nc(C#N)c(N3CCCCCC3)o2)cc(OC)c1OC | ?
O=C(c1cccs1)C1CCCN(Cc2nc(CCc3ccccc3)no2)C1 (stereo not drawn) | 4%
Cc1c[nH]c2ccccc12 | -7%
CC(=O)OC[C@]12C[C@H](OC(=O)CC(C)C)C(C)=C[C@H]1O[C@@H]1[C@H](O)C[C@@]2(C)[C@]12CO2 | -3%[10 µM]
CCOC(=O)c1c(C)oc2ncnc(NCCCN3CCN(c4cc(C)ccc4C)CC3)c12 | 0%
COc1ccc2c(c1)C(COCc1ccc(C(=O)O)cc1)=CC(C)(C)CO2 | -7%
CCC(=O)OC1(C(=O)CCl)C(C)CC2C3CC(F)C4=CC(=O)C=CC4(C)C3(F)C(O)CC21C (stereo not drawn) | 5%
CCOc1ccccc1N(C)C(=O)c1cc(S(=O)(=O)NCCc2ccc(Cl)cc2)ccc1F | -15%
CCOc1cc2[nH]c(=O)n(CCCCC(=O)N3CCN(c4ccccc4OC)CC3)c(=O)c2cc1OCC | -11%

Going on with the list.
canonical_smiles | nsP2pro primary
COc1ccc2cc(CCNS(=O)(=O)c3ccc(C)cc3)c(=O)[nH]c2c1 | -12%
O=C(c1ccc2c(c1)N(Cc1ccc(Cl)cc1)C(=O)c1ccccc1S2(=O)=O)N1CCC(Cc2ccccc2)CC1 | -16%
COc1ccccc1CN1CC(c2noc(CCC(=O)c3ccc(C)cc3)n2)CC1=O (stereo not drawn) | -10%
CCCN(CCC)c1cc(C)nc2nc(-c3ccc(C(C)(C)C)cc3)nn12 | -26%
Cc1ccc(C)c(NC(=O)C2CCCN(S(=O)(=O)c3ccc4[nH]c(=O)ccc4c3)C2)c1 (stereo not drawn) | -18%
Cc1ccc(C)n1-c1cccc(C(=O)O)c1 | i
Oc1cccc(Nc2ccnc3cc(-c4cccc(CN5CCOCC5)c4)sc23)c1 | 63%[activator]
CS(=O)(=O)N1CCN2C(=O)N(C3CCCCC3)C[C@H]2C1 | 0%[39.2 µM]
CCOc1cc(CNC2CCCC2)cc(Cl)c1OCc1ccc(Cl)cc1 | 34%[activator]
Cc1ccccc1NC(=O)c1sc2nc(N3CCOCC3)c3c(c2c1N)CC(C)(C)OC3 | ?
Clc1ccc2oc([C@H]3CCN(Cc4ccccn4)C3)nc2c1 | i
Clc1cc(Cl)c(OCC#CI)cc1Cl | 4.4µM*
N#Cc1ccc(C(=O)N2CCN(c3nc4ccc(F)cc4s3)CC2)cc1 | -16%
Cc1ccc(S(=O)(=O)Nc2ccccc2C(=O)Nc2ccc(-c3ccccc3)nn2)cc1 | 1%
CC1=NOC2(CCN(Cc3cc(C)on3)C2)C1 (stereo not drawn) | -11%[39.2 µM]

The list continues:
canonical_smiles | nsP2pro primary
CC(=O)OC12CC(C)C(O)C1/C=C(/COC1OC(CO)C(O)C(O)C1O)CCC1C(/C=C(\C)C2=O)C1(C)C (stereo not drawn) | 2%[10 µM]
Cc1ccc([C@@H]2CC=C(C(=O)O)[C@H](c3ccc(C(C)(C)C)cc3)N2S(=O)(=O)c2ccc(C)cc2)cc1 | ?
CC1(CNC(=O)c2n[nH]c3ccccc23)CCOCC1 | -16%
COc1cc2nc(N3CCN(C)CC3)nc(NC3CCN(Cc4ccccc4)CC3)c2cc1OC | i
CCOc1ccccc1CNC(=O)CCn1ccc2cc(S(=O)(=O)N3CCCCC3)ccc21 | -22%
O=C(C[C@H]1NC(=O)c2ccccc2NC1=O)Nc1nc(-c2ccncc2)cs1 | i
COc1cc(/C=C/C(=O)N2CCN(CC(=O)N3CCCC3)CC2)cc(OC)c1OC | -10%
Cc1nnc([C@H]2CCN(Cc3cnc4ccccc4c3)C2)o1 | i
CC(C)NC(=O)c1ccccc1OCC1CCCN(Cc2cccnc2)C1 (stereo not drawn) | 2%
COCCOCc1nc(C2CCCN2C(=O)Cc2cccc(F)c2)no1 (stereo not drawn) | 2%
COc1cccc(CN2CCOCCNC(=O)CC2)c1 | -12%
CC(C)NC(=O)NC[C@H]1OC[C@@H](NC2CCCC2)[C@@H]1O | i
C[C@H]1[C@@H]2[C@@H](O)C([C@H](C)C(=O)NCc3ccc(F)cc3)CC[C@@]2(C)CC[C@@H]1NC(=O)Cc1ccccc1 (stereo partly drawn) | -1%
Cc1ccc(NS(=O)(=O)c2cc3c(cc2NCCO)NC(=O)CC3)cc1C | ?
Cc1ccc(C(=O)N2CCC3(CC2)CC(c2ccccc2)C(=O)N3C)s1 (stereo not drawn) | 4%

More structures
canonical_smiles | nsP2pro primary
C[C@]12CC[C@@H]3c4ccc(OC(=O)N(CCCl)CCCl)cc4CC[C@H]3[C@@H]1CC[C@@H]2O | 55%[activator]
O=C(c1ccc(C(F)(F)F)cc1)N1CCC2(C1)C(=NC1CCCCC1)NC(=O)N2c1cccnc1 (stereo not drawn) | -1%
CCCN1Cc2ccccc2NC(=O)C12CCNC2 (stereo not drawn) | 13µM*
OCc1ccc(-c2ccc3ncnc(NCCc4cnc[nH]4)c3c2)o1 | 1.1µM*
CCOC(=O)Cn1cccc1-c1nc(-c2ccc(OC)cc2)c(-c2ccc(OC)cc2)s1 | 6.2µM*
CC(=O)Nc1ccc(S(=O)(=O)Nc2ccc([N+](=O)[O-])cc2)cc1 | -6%
COc1cccc(-c2ccccc2NC(=O)C2CCN(CC=C(C)C)CC2)c1 | i
Cc1ccc(-c2n[nH]c3c2C(c2cccs2)N(c2ccc(Cl)cc2)C3=O)cc1 (stereo not drawn) | -22%
Cc1ccc(NS(=O)(=O)c2ccc(C(=O)Nc3nc(-c4ccccc4)cs3)cc2)cc1 | -9%
CC1CCCN1c1ncnc2c1CN(c1ccccc1F)C(=O)CN2C (stereo not drawn) | i
O=[S+]([O-])(Nc1cccnc1)c1ccc2c(c1)OCCN(Cc1cncnc1)C2 | i
NC(=O)N/N=C/c1ccc([N+](=O)[O-])o1 | -26%
CCOC(=O)c1c(NC(=O)CCCOc2ccc(C)cc2)sc2c1CCC(C)C2 (stereo not drawn) | ?
Cc1ccc(-c2cn3c(n2)sc2cc(C(=O)NCCCc4ccccc4)ccc23)c(C)c1 | -8%
CCOc1ccc(/C=C/c2nc3ccccc3n2S(=O)(=O)c2ccc(Br)cc2)cc1 | -20%

Following part.
canonical_smiles | nsP2pro primary
CC(C)(O)[C@@H]1[C@H]2OC(=O)[C@@H]1[C@]1(O)C[C@H]3O[C@]34C(=O)O[C@H]2[C@]14C | 0%
COCCN1CC2CN(C(=O)CCCc3ccccc3)CC(C1)O2 | -14%
CCOc1ccc(-n2c(=O)c3c(C)c(C)sc3n(Cc3cc(=O)n4cc(Cl)ccc4n3)c2=O)cc1 | -19%
CC(=O)N[C@H](CC(C)C)c1nc(-c2ccc(C)nn2)no1 | -5%
C#CC(C)(CC)NC(=O)c1cnn2c(C(F)F)cc(-c3ccccc3OC)nc12 (stereo not drawn) | -18%
CNc1cc(C)nc(N2CC[C@H](N3CCOCC3)[C@H](CCC(=O)O)C2)n1 | -12%
O=C(c1ccccc1)N1C[C@@H](c2ccc3c(c2)OCO3)[C@@H]2[C@H]1C1CCN2CC1 | i

These rows are one share of the data; the hit share may differ from the screen's.
